Screens as filed in PubChem BioAssay.
YopH inh – blocks Yersinia enterocolitica YopH tyrosine phosphatase; fluorescence Ex485/Em525; inhibition, %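 (about 10 µM by stock and volumes)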; actives 0.16% (n = 140,000);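 active = inhibition of 50% or more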;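 note: controls were vehicle for no effect and minimum signal wells for full effect; inactives centre near -20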
RecA intein inh – Mtb RecA intein splicing inhibition. AID 2221. cell-free RecA intein splicing, fluorescence. actives 0.75% (n = 290,000). inhibition, %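 (about 9 µM by stock and volumes)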; in the data active = inhibition above about 30%; inconclusive = no clear call, values can overlap the other calls;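 note: 0% = vehicle wells and 100% = reference inhibitor control wells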
Target sequence (P9WHJ3 whole entry, looked up): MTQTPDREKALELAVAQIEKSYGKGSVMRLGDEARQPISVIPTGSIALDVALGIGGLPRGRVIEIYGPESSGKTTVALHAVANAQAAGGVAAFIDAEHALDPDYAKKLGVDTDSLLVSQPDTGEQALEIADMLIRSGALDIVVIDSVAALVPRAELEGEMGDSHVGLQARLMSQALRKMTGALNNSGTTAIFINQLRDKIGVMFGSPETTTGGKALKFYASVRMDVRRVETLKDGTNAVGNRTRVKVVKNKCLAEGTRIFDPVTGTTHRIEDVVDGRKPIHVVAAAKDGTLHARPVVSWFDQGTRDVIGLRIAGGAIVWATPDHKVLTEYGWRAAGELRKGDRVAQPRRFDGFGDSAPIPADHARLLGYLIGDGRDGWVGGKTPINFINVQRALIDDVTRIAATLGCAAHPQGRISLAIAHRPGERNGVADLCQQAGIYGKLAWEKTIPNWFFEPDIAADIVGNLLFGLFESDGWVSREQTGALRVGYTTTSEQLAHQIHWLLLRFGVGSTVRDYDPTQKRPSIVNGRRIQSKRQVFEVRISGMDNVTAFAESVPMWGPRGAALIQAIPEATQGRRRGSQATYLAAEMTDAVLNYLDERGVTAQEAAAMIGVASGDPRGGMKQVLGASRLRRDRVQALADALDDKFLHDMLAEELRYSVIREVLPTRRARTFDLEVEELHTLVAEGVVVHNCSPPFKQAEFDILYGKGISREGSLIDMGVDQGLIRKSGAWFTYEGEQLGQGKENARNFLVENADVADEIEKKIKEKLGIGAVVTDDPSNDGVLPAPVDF
Arbovirus anti – arbovirus infection inhibition | arbovirus infection cell-based antiviral screen | inhibition, % at 10 µM | actives 0.37% (n = 200,000);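 active = inhibition from about 30%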;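 note: bluetongue infection of BSR cells; cell survival read as ATP light after 72 h; 0% = infected wells without compound and 100% = uninfected wells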
Mtb betalactam – beta-lactam sensitization of Mtb H37Rv; M. tuberculosis H37Rv growth with meropenem, percent inhibition; hits of this screen are not shown here; inhibition, % at 25 µM; actives 0.27% (n = 330,000); AID 434955;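 active = about 74% or more and at least 40 points above the plate without the antibiotic, then above 30% in a dose series; inconclusive = first-round hits that could not be retested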;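 note: growth measured after seven days incubation then overnight dye step; 0% = bacteria only wells and 100% = bacteria with antibiotic; twin plates without the antibiotic show which effects depend on it; some results filed as inactive read as strong as hits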
Mtb H37Rv – M. tuberculosis H37Rv growth inhibitors, H37Rv strain (AID 1626). M. tuberculosis H37Rv growth inhibition; higher % means a stronger effect. inhibition, % at 10 µM, or IC50 in µM where a hit was titrated. actives 0.95% (n = 220,000);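 active = confirmed in a dose series; inconclusive = inhibition above 80% but not taken into the dose series; inactive = below 80% or under 30% at every dose of the series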;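 note: bacteria incubated seven days before Alamar blue readout; 0% = bacteria only wells and 100% = bacteria with antibiotic wells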
Arbovirus anti repeat – further read-out of Arbovirus anti, marked with its call; inhibition, %; measured here: 10K subset replicate screen; many hits read low in the repeat;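 first of two repeat runs on a subset; 0% = infected and 100% = uninfected wells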
* = called active by the depositor; ? = inconclusive; . = no result given; & = joins results of further samples.

SMILES	YopH inh	RecA intein inh	Arbovirus anti	Mtb betalactam	Mtb H37Rv	others
CN(C)c1ccc2c(=O)[nH][nH]c(=O)c2c1	.	-1.6	4	-5	-9%
COC(CNC(=O)c1ccc2nc3ccccc3c(=O)n2c1)OC	.	-88	.	2	.
O=C(NNC(=O)c1cccnc1SCc1cccc([N+](=O)[O-])c1)c1cccnc1	-11	-3.8	14	2	7%
COc1ccc(OC)c(NC(=O)c2cccc(Cn3cc(Br)c([N+](=O)[O-])n3)c2)c1	-1	8.9	10	9	12%
Cc1ccc(-n2[nH]c(C)c(CCC#N)c2=O)cc1	-9	-6.3	1	4	-3%
Nc1c(Cl)cc(C2=NCCn3c2c2ccc([N+](=O)[O-])cc2[n+]3[O-])cc1Cl	.	12	.	98	.
COc1cccc(CNS(=O)(=O)c2ccc(-n3cnnn3)c(C)c2)c1	.	1.9	.	4	.
CC(=O)c1sc(NC(=O)C(C)C)nc1C	5	-0.3	-7	0	-12%
CCc1ccc(NC2CC(=O)N(c3ccc(OC)cc3OC)C2=O)cc1 (stereo not given)	-103	.	-6	96	31%
O=C1CC(NNc2ccccc2)C(=O)N1c1ccccc1 (stereo not given)	-27	-1.4	-20	19	-5%
Cc1ccc(NC2OC(CO)C(O)C(O)C2O)cc1 (stereo not given)	-26	-2.1	3	0	-14%
Cc1ccc(C(=O)NCC(=O)Nc2ccncc2)cc1	.	0.1	.	-4	.
COc1ccc(CCNC(=O)CCN2C(=O)COc3ccc(C)cc32)cc1OC	-43	-2.7	3	3	-7%
CCc1ccccc1N1CC23C=CC(O2)C(C(=O)OCC(C)C)C3C1=O (stereo not given)	.	1.0	-1	-3	1%	Arbovirus anti repeat=6
O=C1CC(N2CCN(c3ccc(F)cc3)CC2)C(=O)N1Cc1cccs1 (stereo not given)	-1	7.0	-3	-5	1%

Grouped by structure, those above containing a carbonyl joined to an NH by a bond outside any ring
SMILES	YopH inh	RecA intein inh	Arbovirus anti	Mtb betalactam	Mtb H37Rv	others
COC(CNC(=O)c1ccc2nc3ccccc3c(=O)n2c1)OC	.	-88	.	2	.
O=C(NNC(=O)c1cccnc1SCc1cccc([N+](=O)[O-])c1)c1cccnc1	-11	-3.8	14	2	7%
COc1ccc(OC)c(NC(=O)c2cccc(Cn3cc(Br)c([N+](=O)[O-])n3)c2)c1	-1	8.9	10	9	12%
CC(=O)c1sc(NC(=O)C(C)C)nc1C	5	-0.3	-7	0	-12%
Cc1ccc(C(=O)NCC(=O)Nc2ccncc2)cc1	.	0.1	.	-4	.
COc1ccc(CCNC(=O)CCN2C(=O)COc3ccc(C)cc32)cc1OC	-43	-2.7	3	3	-7%

Carrying on.
SMILES	YopH inh	RecA intein inh	Arbovirus anti	Mtb betalactam	Mtb H37Rv	others
O=C(CSc1ccc2ccccc2c1Br)Nc1cccc(S(=O)(=O)NC2=NCCCCC2)c1	-26	7.3	-31	-2	4%
C=C(C)C1CCC2(C(=O)O)CCC3(C)C(CCC4C5(C)C(C=O)C(O)C(C)(C)C5CCC43C)C12 (stereo not given)	.	20	.	2	-4%
COc1ccc(OC)c(/C=c2\sc3nc(-c4cccs4)nn3c2=O)c1	4	-9.0	1	11	-8%
CCNC(=S)N/N=C(\C)c1ccc2ccccc2c1	.	0.6	-3	92	?
Cc1cc(C)n2nc(SCC(=O)N/N=C/c3ccccn3)nc2n1	-15	2.1	0	1	-2%
COc1ccc(OCc2nnc(SCC(=O)NC3CCCCC3)o2)cc1	.	1.4	.	-6	.
CCOc1ccc(NC(=O)Cn2nnc(C(=O)NCc3ccco3)c2N)cc1	-21	-0.9	-7	-8	-8%
CCOc1cccc(/C=N/NC(=O)C2CCCC2)c1O	.	-4.8	.	-3	.
O=C(COC(=O)C12CC3CC(CC(C3)C1)C2)Nc1ccc([N+](=O)[O-])cc1Cl	-26	0.5	-5	-14	4%
O=C(CCC(=O)N(CC(=O)NC1CCCCC1)Cc1cccs1)Nc1ccccn1	.	3.7	10	-7	-15%
Cc1ccccc1S(=O)(=O)NC1=NCCCCC1	-14	-0.6	3	-1	-6%
CCC(=O)N1c2ccc(S(=O)(=O)CCC(=O)NC3CCCC3)cc2CC1C (stereo not given)	-36	-0.9	10	-3	.
C1=C(c2ccccc2)Nc2ncnn2C1c1ccccc1 (stereo not given)	.	-267	.	59	-14%
COc1cc(OC)cc(-c2nnc(NC(=O)CCS(=O)(=O)c3ccccc3)o2)c1	.	-1.7	.	42	.
COc1ccc(-c2cn3nc(SCC(=O)NCC4CCCO4)ccc3n2)cc1 (stereo not given)	.	-174	.	-9	.
O=C(O)Cc1ccc(-c2ccccc2-c2ccccc2)cc1	8	0.2	7	-2	-3%
CCC(C)C(=O)Nc1nc(C)c(-c2csc(Nc3cc(OC)ccc3OC)n2)s1 (stereo not given)	-24	6.8	-17	43	1%
COC(=O)c1c(NC(=O)COC(=O)Cn2cnc3ccccc32)sc2c1CCCC2	-26	2.8	-6	-1	2%
Cc1ccc[n+](CC(O)Cn2c3ccccc3c3ccccc32)c1 (stereo not given)	2	-4.1	0	0	11%
c1ccc(OCCSc2nnnn2C2CCCCC2)cc1	-21	3.8	.	-7	.
CC(O)[C@H]1CC[C@H]2[C@@H]3CC[C@H]4C[C@@H](O)CC[C@]4(C)[C@H]3C(=O)C[C@]12C (stereo not given in full)	.	2.1	.	5	.
Clc1cnc(N/N=C/c2cccs2)c(Cl)c1	-51	-2.2	10	4	-8%
O=C(NCC(=O)N1CCCC(C(F)(F)F)C1)c1ccccc1Br (stereo not given)	.	-1.7	.	-3	.
CCOC(=O)c1ccc2nc(C)c(C)nc2c1	.	-2.1	.	-10	-8%
O=C1c2cccc(Sc3ccccc3)c2C(=O)c2c(Sc3ccccc3)cccc21	.	1.4	.	1	-1%
CCC(CC)NC(=O)CSc1nnc(-c2ccc(OC)cc2)n1C(C)C	-1	-0.8	4	-13	5%
CC(=O)Nc1ccc(S(=O)(=O)NNC(=O)COc2cc(C)ccc2C(C)C)cc1	-17	-1.6	5	9	-4%
CC(C)(C)C(=O)O/N=C(\N)c1ccc(Br)cc1	.	1.1	.	-1	-1%
Cc1noc(C)c1CSc1ncnc2sc3c(c12)CCC(C)C3 (stereo not given)	-38	-1.0	-9	5	1%
O=C(O)C(Cc1ccccc1)NS(=O)(=O)c1ccc2c(c1)OCCO2 (stereo not given)	-38	-1.1	6	3	1%
O=c1[nH]cc(O)c(=O)[nH]1	.	89*	.	-11	1%
O=C1CC(c2ccc(O)cc2)Oc2cc(O)ccc21 (stereo not given)	.	1.0	.	0	-1%
CC(=O)Nc1ccc(C(=O)NNC(=O)c2cc([N+](=O)[O-])cc([N+](=O)[O-])c2)cc1	.	-7.8	3	-11	-4%
COc1ccc(/C=C/C(=O)c2cc(Cl)ccc2O)c(OC)c1	.	-0.3	.	66	3%
O=S(=O)(Nc1ccccc1N1CCOCC1)c1ccc(F)c(Cl)c1	.	2.2	.	9	.
OCc1cn(-c2ccccc2)nn1	.	0.2	14	0	1%
COc1ccc(/C(N)=N/OC(=O)c2c(-c3ccccc3Cl)noc2C)cc1OC	.	2.3	.	3	.
Cc1sc2ncnc(OCC(=O)NC3CCS(=O)(=O)C3)c2c1C (stereo not given)	.	-1.6	.	-3	1%
Oc1ccc(/C=N/n2cc(-c3ccccc3)[nH]c2=S)cc1	.	0.8	3	-7	-1%
CC(=O)Nc1ccc(C(=O)CSc2cc(C)c3cccc(C)c3n2)cc1	-29	-5.8	5	-5	-2%
OCCNc1nc(NCc2ccccc2)c2ccccc2n1	.	-0.7	.	-2	.
CCCCn1c(SCC(=O)OC)nc2c1c(=O)n(C)c(=O)n2C	-14	0.9	17	5	0%
Cc1cc(Cl)ccc1Oc1ncc(-c2ccc(Cl)cc2)cn1	9	-1.7	-6	2	8%
O=C(Nc1cccc(C(=O)N2CCN(c3ccc(F)cc3)CC2)c1)c1ccccc1	.	3.6	-2	8	-2%
CCOc1ccc(OCCC(=O)OCC(=O)NCc2ccccc2)cc1	.	5.2	.	5	.
CCOC(=O)c1c(NC(=O)/C=C/c2ccco2)sc(C)c1C	-46	-2.8	3	3	1%
C=C(C)CSc1nc2c(c(=O)[nH]c(=O)n2C)n1Cc1ccccc1	.	0.6	11	-5	4%	Arbovirus anti repeat=3
CS(=O)(=O)N1CCN(c2ccc(Cl)cc2[N+](=O)[O-])CC1	-10	0.9	5	-4	14%
COc1ccccc1NC(=O)C1CCCN(S(=O)(=O)c2cnc[nH]2)C1 (stereo not given)	-49	-2.4	-3	-7	-9%	Arbovirus anti repeat=2
Cc1[nH]c2ccccc2c1SCC(=O)N1CCCCCC1	.	-0.4	-2	10	10%
Cc1cc(C)n(C(=O)Cn2nc(C)c(Cl)c2C)n1	.	-0.8	.	3	.
Cc1ccc(/C=c2\sc3n(c2=O)CN(c2ccc(Br)cc2)CN=3)o1	-39	-0.1	-25	-2	8%
O=C(c1cccs1)n1nc(-c2ccccc2)nc1NCc1ccc(F)cc1	-17	.	6	-1	0%
CCNC(=S)N1C2CCC1CC(NC(=O)NC1CCCCC1)C2 (stereo not given)	-39	0.1	-2	-3	11%
Cc1[nH]n(-c2ccccc2)c(=O)c1N=Nc1ccccc1C(=O)N1CCCCC1	.	6.7	.	4	2%
C[C@]12CCC(=O)C=C1CC[C@@H]1[C@@H]2[C@@H](O)C[C@@]2(C)[C@H]1CC[C@]2(O)C(=O)COC(=O)CCC(=O)O	-28&-43	0.1&-2.0	12&27	1&2	-12%&-8%
O=C(CSc1ncccn1)Nc1cccc2ccccc12	.	3.0	.	-3	.
CCOc1ccc(C(C)=O)cc1CN1C(=O)NC2(CCCCC2C)C1=O (stereo not given)	-25	2.2	4	0	-3%
CCOCCOC(=O)c1ccc(NC(=O)c2cc(OC)c(OC)c(OC)c2Br)cc1	-2	1.9	0	34	10%
O=C(Cc1csc(Nc2nc(=S)[nH]c3ccccc23)n1)NCc1ccccc1Cl	-30	-0.9	-14	64	6%

Next part:
SMILES	YopH inh	RecA intein inh	Arbovirus anti	Mtb betalactam	Mtb H37Rv	others
CC1CCCC(NC(=O)COC(=O)c2ccc(S(=O)(=O)N3CCOCC3)cc2)C1C (stereo not given)	-6	-0.1	8	-5	-17%
CCC(C)(C)NC(=O)/C=C/c1ccc(OC)c(S(=O)(=O)N2CCOCC2)c1	-14	0.2	10	0	5%
CCC(C(=O)N1CCOCC1)n1c(C(=O)OC)cc2occc21 (stereo not given)	-33	-1.5	-1	-7	-8%
COC(=O)Nc1ccc(S(=O)(=O)N(C)CC(F)(F)C(F)F)cc1	-27	1.4	-5	-4	6%
CCC(C)(c1ccc(C(=O)OC)s1)c1ccc(C(=O)OC)s1	4	20	0	?	-1%	Arbovirus anti repeat=3
CC(=O)Nc1ccc(S(=O)(=O)N2CCN(Cc3cccnc3)CC2)cc1	5	0.9	4	2	-7%
Cc1ccn2cc(CNS(=O)(=O)c3ccc(Cl)s3)nc2c1	-34	1.7	7	-2	9%
CCN(CC)CCN(C(=O)c1ccc(S(=O)(=O)N2CCCC2)cc1)c1nc2cc(C)cc(C)c2s1	.	0.3	.	100	.
CCCNC(=O)Cn1c(=O)/c(=C\c2ccc(-c3cccc([N+](=O)[O-])c3)o2)s/c1=C\C(=O)C(C)(C)C	-15	-0.9	3	2	10%
Cc1ccc(NS(=O)(=O)c2cccc(C(=O)NCC3(N(C)C)CCCCC3)c2)cc1	.	-4.3	-1	-7	1%

Compounds from the list above containing a tert-butyl group, in the order listed:
SMILES	YopH inh	RecA intein inh	Arbovirus anti	Mtb betalactam	Mtb H37Rv	others
CC(C)(C)C(=O)O/N=C(\N)c1ccc(Br)cc1	.	1.1	.	-1	-1%
CCCNC(=O)Cn1c(=O)/c(=C\c2ccc(-c3cccc([N+](=O)[O-])c3)o2)s/c1=C\C(=O)C(C)(C)C	-15	-0.9	3	2	10%

Not all compounds are listed; count on the stated rates, not on these rows.
